Bioassay records deposited in PubChem BioAssay by ICCB-Longwood Screening Facility, Harvard Medical School.
Bm FixLJ act: B. multivorans fixK reporter activation. B. multivorans fixK-promoter GFP reporter, 18 h; active compounds read high. z-score (no concentration beside the values). actives 0.3% (n = 29,000);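 active = replicate mean overnight rise in green fluorescent reporter signal, 3 or more SD over negative controls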;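 also: score is relative to vehicle wells of the plate; 300 nL library stock went into each well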
* = called active by the depositor; & = joins results of further samples. This is a subset; count on the stated rates, not on these rows.

SMILES	Bm FixLJ act
Cc1nnnn1CCC(=O)NCc1ccc(-n2cncn2)cc1	0.48
CC(C)Sc1ccccc1NC(=O)NC1CCCCC1O (stereo not drawn)	-0.01
CCN1CC[C@@H]2CC(N3CCOCC3)CC[C@@]2(C(=O)NCCc2nc(C)c(C)s2)C1 (stereo partly drawn)	-0.77
CCc1ccccc1NC(=O)Cn1nnc(C(=O)NCc2cccs2)c1N	-1
CCOc1ccc(-c2cnc(NCc3ccc(C(F)(F)F)cc3)n2C)cc1	-1.1
CSCCC(NC(=O)c1ccc2c(c1)CCCO2)C(=O)O (stereo not drawn)	-1.1
CCN1CCN(C(=O)c2ccc3c(c2)N(Cc2ccc(F)cc2)C(=O)c2ccccc2S3(=O)=O)CC1	0.51
Cc1nccnc1N1CCC(c2nnc(CN3CCCC3)n2C)CC1	-0.18
CCCc1cc(C(=O)N(CC)Cc2noc(CC(C)C)n2)n[nH]1	-0.42
CNC(=O)c1ccc(S(=O)(=O)NC(C)c2ccc(S(C)(=O)=O)cc2)cc1 (stereo not drawn)	0.09
COc1cccc(C2C(C(=O)Nc3ccc(Cl)cc3)=C(C)Nc3c(C(=O)Nc4ccccc4)cnn32)c1OC (stereo not drawn)	1.5
CC(=O)N1CCc2c(sc3c2c(=O)n(-c2cc(Cl)ccc2C)c(=O)n3C)C1	0.06
COC(=O)c1c(NC(=O)/C(C#N)=C/c2ccccc2)sc2c1CCC2	-0.42
COc1cc(NC(C)CCCN)c2ncccc2c1 (stereo not drawn)	0.98&2.4
COc1ccccc1NC(=O)C(Cc1ccccc1)NS(=O)(=O)c1ccc2c(c1)c(=O)n(C)c(=O)n2C (stereo not drawn)	0.53
CCOC(=O)c1c(NC(=O)c2cc(-c3ccc(Br)cc3)on2)sc(C(C)=O)c1C	1
Cc1ccc(CNC(=O)c2cc3c(=O)n4cccc(C)c4nc3s2)cc1	-0.9
CCNC(=O)[C@@]1(Cc2ccccc2)CC2CCC1N2C(=O)c1csc(-c2ncccn2)n1 (stereo partly drawn)	0.58
CCOc1ccc(-c2nc(SCC(=O)Nc3ccc4c(c3)OCCO4)c(-c3ccc(F)cc3)[nH]2)cc1	-0.46
COc1ccc(S(=O)(=O)NCCCO)cc1-c1nnc2c3ccccc3c(C)nn12	-1.2
COc1ccc(C(NC(=O)c2cc(CO)ccn2)C2CC(O)C2)cn1 (stereo not drawn)	-1.3
Cc1cccc(Cn2c(CN3CCCC(C)C3)nc3c2c(=O)n(C)c(=O)n3C)c1 (stereo not drawn)	-0.41
CCN1CCN(c2c(S(=O)(=O)c3ccc(OC)cc3)cnc3cc(OC)c(OC)cc23)CC1	-0.9
CCCc1nc(NCCC2CCN(C3CCCC3)CC2)no1	-0.49
COc1ccc(C(=O)N2CCC3(CC2)c2nc[nH]c2CCN3C)c(OC)n1	0.89
Next section:
SMILES	Bm FixLJ act
CCCN1CCN(CCCNC(=O)Cn2nc(C)n3c(cc4cc(F)ccc43)c2=O)CC1	-1.6
COc1ccc(NC(=O)c2oc3ccccc3c2NC(=O)Cc2coc3cc(C)ccc23)cc1	-2.7
CN(C)c1ccc(O)c2c1C[C@H]1C[C@H]3[C@H](N(C)C)C(=O)C(C(N)=O)=C(O)[C@@]3(O)C(=O)C1=C2O	-4.1&-3
CCCc1nnc(NC(=O)Cc2coc3cc(C)cc(C)c23)s1	-1.4
Fc1ccc(NCc2ccccc2-c2nnc(-c3ccccc3Cl)o2)cc1Cl	1.2
Cc1cc(-c2nc3ccccc3s2)ccc1NC(=O)c1cc(Cl)ccc1Cl	-1.8
CCCCOC(=O)c1ccc(NC(=O)CC2NCCNC2=O)cc1 (stereo not drawn)	0.73
CCOC(=O)CC(NC(=O)c1cc2c(=O)n3cccc(C)c3nc2s1)c1ccc(OCC(C)C)c(OC)c1 (stereo not drawn)	-1.7
Cc1ccc(-n2c(=O)c3c4c(sc3n(Cc3cc(=O)n5ccccc5n3)c2=O)CCC4)cc1C	0.25
Cc1ncsc1CCN(C)S(=O)(=O)c1ccc(-c2cc(C(F)(F)F)on2)o1	-1.3
Cc1ccc(C(=O)c2cc(O)c(O)c([N+](=O)[O-])c2)cc1	-1.1
COc1ccc(-c2noc(-c3cccc(OC)c3OC)n2)cc1	-1.2
COCCN(Cc1ccccc1C)C(=O)NCc1ccco1	0.04
Cc1ccc(NC(=O)Cn2c(=O)n(CCCCC(=O)NCc3ccccc3Cl)c(=O)c3ccccc32)cc1	-1.7
Cc1oc2ccc(O)c(CN3CCOCC3)c2c1C(=O)Nc1cccc(C(F)(F)F)c1	-0.98
Cc1nc(C(C)C)sc1C(=O)N1CC(O)C(Cc2ccncc2)C1 (stereo not drawn)	-0.32
CC1=Nc2cc(C(=O)NC3CCC(C)CC3)ccc2Sc2c(C)ccc(C)c21 (stereo not drawn)	0.4
Cc1ccccc1-c1cc(O)c2c(c1)CN(C(=O)Cc1ccncc1)CCO2	0.05
O=C1CN(C(=O)COc2ccc(Cl)cc2)C(c2ccc(F)cc2)c2cc(Br)ccc2N1 (stereo not drawn)	-1.1
N#Cc1ccc(CN2CC3CCC2CN(C(=O)c2ccccn2)C3)cc1 (stereo not drawn)	-1.7
Cn1c(CN2CCCC2)nnc1C1CCCN(C(=O)Cn2cncn2)C1 (stereo not drawn)	0.79
CCn1cc2nc(SCC(=O)Nc3cc(OC)ccc3OC)n(Cc3ccc(Cl)cc3)c(=O)c2n1	-0.52
CCc1ccc(NS(=O)(=O)c2ccc3[nH]cc(C(=O)NCCc4ccccc4)c(=O)c3c2)cc1	-2.2
COc1cc(OC)cc(C(=O)Nc2ccc(S(=O)(=O)Nc3ncccn3)cc2)c1	-2.9
CN1CCC[C@]2(C(=O)O)CCN(C(=O)c3ccc4nc[nH]c4c3)C[C@H]12	0.19

Laid out differently: five of the compounds above
| structure | Bm FixLJ act |
| --- | --- |
| CCN1CCN(c2c(S(=O)(=O)c3ccc(OC)cc3)cnc3cc(OC)c(OC)cc23)CC1 | -0.9 |
| CCOc1ccc(-c2cnc(NCc3ccc(C(F)(F)F)cc3)n2C)cc1 | -1.1 |
| CCCCOC(=O)c1ccc(NC(=O)CC2NCCNC2=O)cc1 (stereo not drawn) | 0.73 |
| CCNC(=O)[C@@]1(Cc2ccccc2)CC2CCC1N2C(=O)c1csc(-c2ncccn2)n1 (stereo partly drawn) | 0.58 |
| CCN1CC[C@@H]2CC(N3CCOCC3)CC[C@@]2(C(=O)NCCc2nc(C)c(C)s2)C1 (stereo partly drawn) | -0.77 |

Retrieved by structure from the list above (six):
SMILES	Bm FixLJ act
COc1cc(OC)cc(C(=O)Nc2ccc(S(=O)(=O)Nc3ncccn3)cc2)c1	-2.9
CNC(=O)c1ccc(S(=O)(=O)NC(C)c2ccc(S(C)(=O)=O)cc2)cc1 (stereo not drawn)	0.09
COc1ccc(NC(=O)c2oc3ccccc3c2NC(=O)Cc2coc3cc(C)ccc23)cc1	-2.7
CCOC(=O)CC(NC(=O)c1cc2c(=O)n3cccc(C)c3nc2s1)c1ccc(OCC(C)C)c(OC)c1 (stereo not drawn)	-1.7
CN(C)c1ccc(O)c2c1C[C@H]1C[C@H]3[C@H](N(C)C)C(=O)C(C(N)=O)=C(O)[C@@]3(O)C(=O)C1=C2O	-4.1&-3
CCCc1nnc(NC(=O)Cc2coc3cc(C)cc(C)c23)s1	-1.4

Remaining list, next part
SMILES	Bm FixLJ act
CN(C)CC1CCN(C(=O)CCN2CCCCC2=O)CC1O (stereo not drawn)	0.84
Cc1cc(NC(c2nnc(-c3ccccc3)o2)c2ccccc2F)ccc1Br (stereo not drawn)	2.4
COCCn1c(=O)[nH]c2cc(C(=O)N3CCN(c4ccc(Cl)cc4)CC3)ccc2c1=O	0.59
Cc1ccc(CCNS(=O)(=O)c2ccc3c(c2)CCN3C(=O)CCC(=O)O)cc1	0.07
COC(=O)Cn1nc(C)c2c(C)n(-c3ccccc3)nc2c1=O	-0.66
Cc1ccc(N2CCN(S(=O)(=O)c3ccc(-n4cnnn4)cc3)CC2)c(C)c1	-1.5
COC(=O)c1ccc(-c2nccn2CC2CCCN(S(C)(=O)=O)C2)cc1 (stereo not drawn)	-1.4
O=S(=O)(c1ccccc1)c1nc(-c2ccccc2)oc1N1CCN(c2cccc(Cl)c2)CC1	-0.1
CCNC(=O)CC1C(=O)N(c2ccc(F)cc2)C(=O)N1Cc1ccc(C)cc1 (stereo not drawn)	-1.4
COC(=O)C(CCSC)Nc1ncnc2onc(-c3ccc(F)cc3)c12 (stereo not drawn)	-1.9
CNC(=O)C(C)(C)NC(=O)C1CCCN(C2CCN(Cc3cccnc3)CC2)C1 (stereo not drawn)	1.3
O=C(Nc1ccc(F)cc1)c1cc2cc3ccc(Cl)cc3nc2o1	-0.83
O=C(Cc1cccnc1)Nc1ccccc1OCC1CCCO1 (stereo not drawn)	-0.08
COc1ccc(C(=O)Nc2nc3n(n2)C(c2ccc(Cl)cc2)C=C(c2ccccc2)N3)cc1OC (stereo not drawn)	-0.28
CNc1nc(N2CCN(CC(=O)N3CCCCC3)CC2)ncc1F	-0.7
Cc1ccc(NC(=O)CCCn2c3ccccc3c(=O)c3cc(C)ccc32)c(Br)c1	-1.3
Cc1cccc(Nc2c(-c3ccsc3)nc3nc(C)cc(C)n23)c1	-0.89
COc1ccc(Nc2nc3ccccc3nc2NS(=O)(=O)c2ccc(C)cc2)c(OC)c1	-0.4
O=C(NCc1ccc(Cl)cc1)c1ccc2c(Cl)c3c(nc2c1)CCCC3	-0.21
CCc1nn(CC(=O)Nc2ccc(C)c(F)c2)c(=O)c2cc3cc(C)ccc3n12	-2.7
CCOc1ccc(OCC)c(NC(=O)C2CCN(S(=O)(=O)c3ccc(Br)s3)CC2)c1	0.68
CCc1ccc(C(=O)CC2(O)C(=O)N(CCc3ccccc3)c3ccc(Br)cc32)cc1 (stereo not drawn)	0.58
CCOc1ccc(-n2nc(CO)c(C(=O)NCc3ccc(Cl)cc3)n2)cc1	0.66
O=C(c1cncc(Cl)c1)N1CCCC1c1nc2ccc(F)cc2[nH]1 (stereo not drawn)	-1.1
O=C(CCCc1ccc(Cl)cc1)N1CC2COC[C@]2(C(=O)O)C1 (stereo partly drawn)	-1.2
Later entries
SMILES	Bm FixLJ act
COc1ccc(-n2nc(C(=O)O)c(=O)n(C)c2=O)cc1	-0.17
CCCc1cc(C(=O)N2CC3CCC(C2)N(CC(=O)N(C)C)C3=O)n(C)n1 (stereo not drawn)	0.25
O=C(C1CC1)N1CCc2cc(Br)cc(S(=O)(=O)N3CCN(c4cccc(Cl)c4)CC3)c21	-1.1
CC(C)n1cc(NC(=O)c2cc(-n3cccn3)ccc2Cl)cn1	-0.95
Cc1ccc(N(CC(=O)NC(C)c2nc(-c3ccncc3)no2)S(C)(=O)=O)cc1 (stereo not drawn)	0.08
COc1ccc2c(c1)CCc1c(C(=O)Nc3ccccc3C(F)(F)F)noc1-2	1.7
Cc1ccc(S(=O)(=O)c2nc(-c3cccs3)oc2N2CCC(C)CC2)cc1	-0.71
COc1ccc(NC(=O)c2oc3ccccc3c2NC(=O)C2CCCCC2)c(OC)c1	-1.2
CCOC(=O)[C@@]12CCC(N3CCOCC3)C[C@H]1CCN(Cc1cccnc1)C2 (stereo partly drawn)	1.2
O=NN(CCCl)C(=O)NC1CCCCC1	-0.69
O=C(C1CCCN(S(=O)(=O)c2cccs2)C1)N1CCN(c2ccccc2F)CC1 (stereo not drawn)	-2.6
O=C1C2=C(Nc3ccccc3SC2c2ccc(Cl)c(Cl)c2)c2ccccc21 (stereo not drawn)	-1.4
CCn1cc(C(=O)NCc2ccccc2)c(=O)c2cc(S(=O)(=O)N3CCOCC3)ccc21	0.22
COc1ccc(-n2c(=O)c3c4c(sc3n(C)c2=O)CN(C(C)=O)CC4)cc1	-0.5
COc1ccc(NC(=O)CC2C(=O)N(c3ccc(C)cc3)C(=O)N2C2CCCCC2)cc1 (stereo not drawn)	-1.9
O=C(CCc1nc2cccnc2n1Cc1cccs1)Nc1cccc(Cl)c1	-0.09
CC(O)C1CCN(c2ncc(C(C)(C)C(=O)O)c(N3CCOCC3)n2)CC1 (stereo not drawn)	-2.3
CCN(CC)c1cc(C)c2cc(NC(=O)c3ccccc3OC)ccc2n1	-1.7
Cc1ccc(COc2ccc(-c3cc(C(F)(F)F)n4nc(C)cc4n3)cc2)cc1	-0.21
COc1cc(NC(=O)c2nn(-c3ccc(C)cc3)c(=O)c3c2c2ccccc2n3C)cc(OC)c1OC	-0.66
Cc1ccc2c(c1)C(c1ccccc1)N(C(=O)Cc1ccc(F)cc1)CC(=O)N2 (stereo not drawn)	-0.58
CCN(CCCNC(=O)Cn1ncc2c3ccccc3n(C)c2c1=O)Cc1ccccc1	-3.1
COc1cc(Cl)c(C)cc1NC(=O)CCc1c(C)nc2c3cccnc3nn2c1C	-3.2
COc1cccc(-c2ccc3c(N)c(C(=O)c4ccc(Cl)cc4)sc3n2)c1	-3
COC(=O)CN1C(=O)C(O)(CC(=O)c2ccc(F)cc2)c2ccccc21 (stereo not drawn)	-1.1

Look-ups from the list.
For Bm FixLJ act, COc1ccc(-n2nc(C(=O)O)c(=O)n(C)c2=O)cc1 has the entry -0.17
For Bm FixLJ act, O=C1C2=C(Nc3ccccc3SC2c2ccc(Cl)c(Cl)c2)c2ccccc21 (stereo not drawn) has the entry -1.4
For Bm FixLJ act, COc1cc(NC(=O)c2nn(-c3ccc(C)cc3)c(=O)c3c2c2ccccc2n3C)cc(OC)c1OC has the entry -0.66
For Bm FixLJ act, COc1ccc(NC(=O)c2oc3ccccc3c2NC(=O)C2CCCCC2)c(OC)c1 has the entry -1.2

(listing goes on)
SMILES	Bm FixLJ act
COc1ccc(-c2nc(S(=O)(=O)c3ccc(Cl)cc3)c(NCc3ccccc3)o2)cc1	0.56
CN[C@@H]1[C@@H](O[C@H]2O[C@H](CO)[C@@H](N)[C@H](O)[C@H]2O)O[C@H]2C[C@@H](N)[C@@H](O[C@H]3[C@H](O)[C@@H](O)[C@H](N)C[C@@H]3N)O[C@@H]2[C@@H]1O	-0.84
CC1CCN(C(=O)c2ccc3c(c2)N(Cc2ccccc2F)C(=O)c2ccccc2S3(=O)=O)CC1	-0.03
CN(C(=O)c1cc2nc(-c3ccco3)cc(C(F)(F)F)n2n1)c1ccc(OC(F)(F)Cl)cc1	-1.3
CCc1cccc(CC)c1NC(=O)c1c(C)oc2ccc(O)c(CN3CCN(C)CC3)c12	-0.28
COc1cccc(CC(=O)Nc2ccc(C(=O)NC(C)C)cc2)c1	-2.6
CCCOC(=O)c1c(NC(=O)c2cc3nc(-c4ccc(OC)cc4)cc(C(F)(F)F)n3n2)sc2c1CCCC2	-0.01
